NPYLR7 ag: mosquito NPYLR7 agonism | HEK293T NPYLR7/Galpha15, GCaMP6s calcium fluorescence | activation, % at 10 µM | 270,000 compounds, 0.15% hits | AID 1259423; in the data active = activation above about 40%;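 also: 0% = vehicle and 100% = reference agonist at the receptor; some compounds past the cut are filed as inactive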
NPYLR7 ag max-min: also measured in NPYLR7 ag; calls as there; activation, %; measured here: Max-Min RFU normalised activation; some inactives read as strong as hits;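 span of the calcium signal over five minutes; 0% = vehicle and 100% = native peptide agonist; compound fluorescence can raise it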
An asterisk follows results filed as active; & = joins results of further samples. This is a subset; the hit share may differ from the screen's.

A first look, six compounds:
Molecule	NPYLR7 ag	NPYLR7 ag max-min
COc1cccc(-c2csc3nc(CN(C)CC(O)c4ccccc4)[nH]c(=O)c23)c1 (stereo not given)	10	5
Cc1ccnc(SCCn2c(N3CCCC(C)C3)nc3c2c(=O)n(C)c(=O)n3C)n1 (stereo not given)	1	5
C=c1ccccc1=c1[nH]/c(=C\C=C\c2ccccc2OC)c(=O)o1	1	1
Cn1cc(-c2ccc3ncc(Cc4ccc5ncccc5c4)n3n2)cn1	-4	-6
COc1ccc(CN2CCC(CCC(=O)Nc3ccccc3Cl)CC2)c(F)c1	6	6
O=C(NCc1cccc(F)c1)c1ccc(-c2cccc(C(F)(F)F)c2)s1	4	0

The list itself, repeating the preview:
Molecule	NPYLR7 ag	NPYLR7 ag max-min
COc1cccc(-c2csc3nc(CN(C)CC(O)c4ccccc4)[nH]c(=O)c23)c1 (stereo not given)	10	5
Cc1ccnc(SCCn2c(N3CCCC(C)C3)nc3c2c(=O)n(C)c(=O)n3C)n1 (stereo not given)	1	5
C=c1ccccc1=c1[nH]/c(=C\C=C\c2ccccc2OC)c(=O)o1	1	1
Cn1cc(-c2ccc3ncc(Cc4ccc5ncccc5c4)n3n2)cn1	-4	-6
COc1ccc(CN2CCC(CCC(=O)Nc3ccccc3Cl)CC2)c(F)c1	6	6
O=C(NCc1cccc(F)c1)c1ccc(-c2cccc(C(F)(F)F)c2)s1	4	0
CCS(=O)(=O)N1CCc2cc(-c3csc(-c4ccc(O)cc4)n3)ccc21	7	4
CCCCc1ncc(CN2CCc3c([nH]c4ccccc34)C2c2cccc(C)n2)[nH]1 (stereo not given)	0	-3

(listing goes on)
Molecule	NPYLR7 ag	NPYLR7 ag max-min
Cc1oc(-c2ccc(Cl)cc2)nc1CN(C)Cc1ccc2nonc2c1	-6	2
CCC(COC)NCc1cn(-c2ccc(OC)cc2)nc1-c1cccc(F)c1 (stereo not given)	2	-2
Cc1cc(C)n(C)c(=O)c1C(=O)N(Cc1ccsc1)CC(C)C	-4	-6
Cc1c(S(=O)(=O)CCNC(=O)Nc2ccccc2C#N)c2ccccc2n1C	2	9
CC(=O)N1CCC2(CC1)C(C#N)C(=N)SC(=N)C2C#N (stereo not given)	5	7
CCCCC(=O)N(C)c1c(C)nc2ccc(C(=O)N(C)Cc3ccccc3)cn12	1	-8
Cc1ccc2cccc(OCC(C)CS(C)(=O)=O)c2n1 (stereo not given)	5	4
COc1cccc(CC2(C(=O)NCCCC(N)=O)CC3CCC2C3)c1 (stereo not given)	-7	35

Other structures:
Molecule	NPYLR7 ag	NPYLR7 ag max-min
O=C(CNC(=O)c1cccs1)NN1C(=O)NC2(CCCCC2)C1=O	13	15
CN(C)c1ccc(N=Nc2ccc(S(N)(=O)=O)cc2)cc1	-5	-7
COC(=O)C1=C(C)NC(=O)NC1c1cc(C(C)(C)C)c(O)c(C(C)(C)C)c1 (stereo not given)	1	7
Clc1cc(CSc2nnc(C3CC3)n2C2CC2)cc2c1OCCO2	4	8
CCc1ccccc1CN1CCCn2cccc2C1c1ccccc1Cl (stereo not given)	0	9
CCCOc1cc(Nc2ccc(NC(=O)Nc3ccc(C)c(F)c3)cc2)nc(C)n1	18	13
COc1ccc(CN(C(=O)c2cccs2)c2ccccc2C(=O)O)cc1	3	0
COc1cccc(-c2cc(-c3ccc(C(=O)N[C@@H]4CCCc5ccccc54)cc3)[nH]n2)c1	-2	2

Remaining list, next part.
Molecule	NPYLR7 ag	NPYLR7 ag max-min
Cc1ccoc1C(=O)N1CCN(c2ncccn2)CC1C(=O)O (stereo not given)	6	2
CCc1[nH]c2c(CNC(=O)CCCN3CCCCC3=O)cc(F)cc2c1C	1	-1
CCC(C)N(Cc1ccc(OS(C)(=O)=O)cc1)C(=O)Nc1cccc2ccccc12 (stereo not given)	-11	-6
Cc1cccnc1C1=NOC(Cc2ccccc2)C(=O)N1CC(=O)c1ccccc1F (stereo not given)	-3	-4
COc1cc2nc(C3CCCCC3)oc(=O)c2cc1OC	7	4
CCN1CCc2nc(-c3ccc(F)cc3)n(CC(=O)Nc3ccc(Cl)cc3)c(=O)c2C1	-10	-10
O=C(CSc1ccc2nnc(-c3cccnc3)n2n1)NC1CCCCC1	0	-2
O=C1c2nc(-c3cccnc3)ccc2CN1C1(C(=O)NCCc2ccccc2)CC1	12	34

Entries of single compounds, quoted from the list. Order of screens: NPYLR7 ag | NPYLR7 ag max-min
Listed for CCc1ccccc1CN1CCCn2cccc2C1c1ccccc1Cl (stereo not given) = 0 | 9
Listed for COc1cccc(CC2(C(=O)NCCCC(N)=O)CC3CCC2C3)c1 (stereo not given) = -7 | 35

Following part
Molecule	NPYLR7 ag	NPYLR7 ag max-min
CCOC(=O)C1=C(C)NC(=S)NC1c1ccc(O)c(OC)c1 (stereo not given)	5	11
COc1ccc(C(=O)NC2=NCCS2)cc1S(=O)(=O)N1CCCCC1C (stereo not given)	2	-1
Cn1nc(C(=O)N2CCCC(C(=O)c3ccc(Oc4ccccc4)cc3)C2)ccc1=O (stereo not given)	17	8
Cc1noc(C)c1C(=O)NCc1ccccc1OC1CCCC1	-27	-28
O=C(CSc1nncn1C1CC1)N1CCSc2ccccc21	4	3
Cc1cnc(C)c(N2CCN(Cc3ccc(C4CCCO4)s3)CC2)n1 (stereo not given)	12	11
CC1=C(C(=O)OCCc2ccccc2)C(c2ccc(Br)cc2)NC(=O)N1 (stereo not given)	0	-5
CCN(C(=O)CN1CCC(N2CCN(C)C2=O)CC1)C1=CCCCC1	12	10

Additional structures:
Molecule	NPYLR7 ag	NPYLR7 ag max-min
COCCN(Cc1nccn1Cc1c(C)cc(C)cc1C)C(=O)c1ccccc1F	0	10
COc1ccccc1C(=O)Nc1ccnn1C1CCN(C(=O)C2CCOC2)CC1 (stereo not given)	2	0
Cc1cccc(OCC(O)CNCc2cnc(C3CCC3)s2)c1 (stereo not given)	6	3
CC(C)CN1C(=O)N(C2Cc3ccccc3C2)C(=O)C12CCN(Cc1nc3ccccc3n1C)CC2	15	10
Cn1c(=O)c2c(ncn2CC(=O)c2ccccc2)n(C)c1=O	12	11
COc1ccc(-c2cn3nc(SCC(=O)Nc4ccccc4C)ccc3n2)cc1	6	5
CC(O)CCNC(=O)c1nc(-c2cccs2)n(-c2cccc(F)c2)n1 (stereo not given)	3	-2
O=C(Nc1ccccc1)C1CCCN(CC2CCCCO2)C1 (stereo not given)	-7	-11

(more compounds)
Molecule	NPYLR7 ag	NPYLR7 ag max-min
c1ccc(Cc2nnc3sc(C4CCOC4)nn23)cc1 (stereo not given)	22	16
CC1(C)N=C(N)NC(Nc2ccccc2Br)=N1	7	7
O=C(CCl)Nc1ccc(N2CCCC2)cc1	-4	-6
CC(C)Nc1ccc(C(=O)N2CCC(O)(Cc3ccccc3)CC2)cn1	-2	-6
Cc1ccc2c(c1)N(Cc1ccccc1)C(=O)C(C)O2 (stereo not given)	5	12
CC(C)NC(=O)c1ccc(-c2ccc([N+](=O)[O-])cc2Cl)o1	2	-3
O=C(N=C1N=C2C=CC(Br)=CN2Cc2ccccc21)c1ccc(=O)oc1	14	10
O=C(C1CCN(c2nc(-c3ccccc3)nc3c2CCC3)CC1)N1CCSCC1	-5	-7

(further entries)
Molecule	NPYLR7 ag	NPYLR7 ag max-min
O=C(CSc1ccc2nnc(-c3cccnc3)n2n1)N1CCCC(c2ccccc2)CC1 (stereo not given)	16	5
Cc1cccc(C)c1NC(=O)c1ccc(NC(=O)C2CC2)s1	-4	6
CN[C@@H]1[C@H](OC2[C@H](O[C@H]3[C@H](O)[C@@H](O)[C@H](N=C(N)N)[C@@H](O)[C@@H]3N=C(N)N)O[C@@H](C)[C@]2(O)C=O)O[C@@H](CO)[C@H](O)[C@H]1O (stereo not given in full)	-6	-10
O=C(Cc1ccccc1)N(Cc1csc(COc2cccc3ccccc23)n1)C1CC1	20	23
Cc1sc2nc(SCCCC(=O)Nc3ccc(S(N)(=O)=O)cc3)nc(N)c2c1C	-4	-9
C=c1ccccc1=C1C=NNC(N2CCC(OCCOC)CC2)=N1	18	9
O=C(NNC(=O)c1ccco1)c1ccc2c(c1)-c1ccccc1C2	-3	-2
CCOC(=O)c1[nH]c(C)c(C(=O)C(C)N(CCOC)S(=O)(=O)/C=C/c2ccccc2)c1C (stereo not given)	19	23

Later entries.
Molecule	NPYLR7 ag	NPYLR7 ag max-min
CCCCn1c(CN2CCCCC2CC)nc2c1c(=O)n(C)c(=O)n2C (stereo not given)	-16	-17
Cc1ccc(C(=O)NC(=NCCCN2CCOCC2)OCC(C)C)cc1	9	13
Cc1cccc(C)c1Nc1c(-c2ccc3c(c2)OCO3)nc2cccc(C)n12	3	13
CCC(=O)Nc1cccc(OCC(=O)NC(C)c2ccc(C)cc2C)c1 (stereo not given)	-15	-16
CSCCC1NC(=O)c2ccccc2N(CC(=O)NCC(C)(C)CN(C)C)C1=O (stereo not given)	-1	8
O=C(c1cn(Cc2ccccc2F)nn1)N1CCN(Cc2ccccn2)CC1	3	2
O=C(Nc1ccc(F)cc1F)c1cnn2c1NC(c1ccco1)CC2C(F)(F)F (stereo not given)	25	6
Cc1ccc(-c2ccc(OCCNS(=O)(=O)c3ccc(Cl)cc3)nn2)cc1	-4	-12

(cont.)
Molecule	NPYLR7 ag	NPYLR7 ag max-min
N#Cc1ccccc1CN1CCN(c2nc(C(=O)NCC3CCOCC3)co2)C1=O	10	6
CSc1nnc2c(n1)OC(/C=C/c1ccco1)Nc1ccccc1-2 (stereo not given)	3	3
CCCCc1oc2ccccc2c1C1NC(=O)c2ccccc2N1 (stereo not given)	14	11
O=[N+]([O-])c1ccc(Sc2n[nH]c(-c3ccncc3)n2)c([N+](=O)[O-])c1	-5	-8
O=C(NCc1ccccc1CO)c1cccc(OCC(F)(F)F)n1	-7	-8
COc1ccc(CC(=O)N(CC(=O)Nc2cc(-c3ccccc3)nn2-c2ccc(F)cc2)CC(C)C)cc1	-2	5
COc1ccc([C@@H](C)NC(=O)c2cccc(C#CC(C)(C)O)c2)cc1	6	5
CC(=O)NC1=NN(C(C)=O)C2(S1)C(=O)N(C(C)=O)c1ccc(Br)cc12 (stereo not given)	15	7

An excerpt from above in order of number of heavy atoms, rising:
Molecule	NPYLR7 ag	NPYLR7 ag max-min
CC(C)NC(=O)c1ccc(-c2ccc([N+](=O)[O-])cc2Cl)o1	2	-3
Clc1cc(CSc2nnc(C3CC3)n2C2CC2)cc2c1OCCO2	4	8
Cc1oc(-c2ccc(Cl)cc2)nc1CN(C)Cc1ccc2nonc2c1	-6	2
Cc1cccc(C)c1Nc1c(-c2ccc3c(c2)OCO3)nc2cccc(C)n12	3	13
COc1cccc(-c2cc(-c3ccc(C(=O)N[C@@H]4CCCc5ccccc54)cc3)[nH]n2)c1	-2	2

More structures follow.
Compound	NPYLR7 ag	NPYLR7 ag max-min
O=c1oc2cc(Oc3ncnc4c3oc3ccccc34)ccc2c2c1CCC2	-1	-5
CCCC(=O)Nc1ccc(CC(=O)N[C@H]2CCCCNC2=O)cc1	0	-4
Cc1ccc(Cn2nnc3c(SCC(=O)NCc4ccccc4)ncnc32)cc1	9	20
O=C(O)c1ccc2[nH]cnc2n1	-6	-1
CC(C)CN(Cc1ccco1)C(=O)CN1CCCN(C)CC1	3	4
O=C(NCCN1CCOCC1)c1csc(COc2ccccc2F)n1	0	-12
CC(=O)Nc1ccc(C(=O)N2CCCN(Cc3cc(=O)c(OCc4ccc(C(C)(C)C)cc4)co3)CC2)cc1	19	5
O=C(COC(=O)c1ccc(N2C(=O)C3C4C=CC(C4)C3C2=O)cc1)c1ccc(Br)cc1 (stereo not given)	5	1
C=CCN(C(C)=O)C(c1ccccc1)P(=O)(OCC)OCC (stereo not given)	-3	-3
CCOC(=O)c1cc(-c2cccc(NC(=O)Cc3cccs3)c2)n(-c2cccc(C)c2)n1	22	12
Cc1nonc1NC(=O)C1SCCc2ccccc21 (stereo not given)	5	2
CC(C)CN1CCC(NC(=O)N(C)Cc2cccc(Cl)c2Cl)CC1	1	-4
Cc1ccc(-n2nnnc2SCc2cn3cccc(C)c3n2)cc1C	1	-2
O=C(NCC1CCCO1)c1cccnc1N1CCN(C(=O)C2C[C@H]2c2ccccc2)CC1 (stereo not given in full)	0	-6
COCCCNC(=O)c1cc(NC(=O)Nc2cccc(Br)c2)ccc1N1CCCCC1	15	23
Cc1n[nH]c(C)c1CCC(=O)N1CCC2(CN(C)C(=O)O2)C1 (stereo not given)	0	-4
CC(C)CC(CNC(=O)C1=CCCC1)NC(=O)C1=CCCC1 (stereo not given)	16	16
O=C(CSc1nc2ccccc2[nH]1)Nc1ccccc1C(=O)O	0	-2
COc1ccccc1C(=O)NC(Cc1ccccc1)c1nnc(SCc2cccc(C)c2)n1-c1ccc([N+](=O)[O-])cc1 (stereo not given)	21	22
NC(=O)N1c2ccccc2CC(=O)c2ccccc21	4&6	-12&1

(continued)
Compound	NPYLR7 ag	NPYLR7 ag max-min
O=C(NC(=S)Nc1ccc(N2CCN(C(=O)c3ccccc3)CC2)cc1)c1ccco1	-7	-11
CC(C)(C)CC(=O)Nc1ccc(CC(=O)Nc2ccc3c(c2)OC(C)(C)O3)cc1	-1	-3
CCN1/C(=C/C=C/C=C/c2ccc3ccc4ccoc4c3[n+]2CC)C=Cc2ccc3ccoc3c21	4	3
Cc1noc(C)c1CCC(=O)Nc1nc2c(s1)CCC2	9	1
CNCC(=O)NCc1csc2c1CCCC2	0	6
CC(Nc1ccc(S(=O)(=O)N2CCN(C)CC2)cc1[N+](=O)[O-])c1ccc(F)cc1 (stereo not given)	-1	0
CC(C)C1SC(=N/N=C\c2ccco2)NC1=O (stereo not given)	12	6
COc1cc(-c2nc3c(c(=O)[nH]2)CN(C(=O)C24CC5CC(CC(C5)C2)C4)CC3)cc(OC)c1OC	-5	6
CCCc1c(C)nn(-c2ccc(C(=O)NC(C)(C)CC)cc2)c1C	8	3
COc1ccccc1SCc1csc(-c2ccc(Cl)cc2)n1	3	13
CSCCC(=O)N1CCC(CCC(=O)NCc2cccc(C(F)(F)F)c2)CC1	6	4
CCOC(=O)c1ccc2c(c1)nc(SCc1cc3c(cc1Cl)OCO3)n2CCOC	12	10
Nc1[nH]n(-c2ccccc2)c(=O)c1N=Nc1ccc(-c2ccccc2)cc1	22	8
Cc1cccn2c(CNC(C)CCc3ccc(O)cc3)cnc12 (stereo not given)	15	13
C=CC1(C)CC(=O)C2(O)C(C)(O1)C(OC(C)=O)C(O)C1C(C)(C)CCC(O)C12C (stereo not given)	-10	-16

Source: PubChem BioAssay
